VDR inhibitor: inhibitors of human vitamin D receptor; 0.93% of 400,000 active; P11473; VDR-SRC2-3 peptide fluorescence polarization, 2 h; Potency, µM, for inactives: max response, negative = inhibition, hits mostly inhibitors; active means well fitted inhibition curve with a large enough effect; inconclusive means small, poorly fitted or top-dose-only effect, or another doubt; inactive means no such curve, though single readings can be large or run the other way; further: series mostly up to about 120 µM
Target sequence (P11473 whole entry, looked up): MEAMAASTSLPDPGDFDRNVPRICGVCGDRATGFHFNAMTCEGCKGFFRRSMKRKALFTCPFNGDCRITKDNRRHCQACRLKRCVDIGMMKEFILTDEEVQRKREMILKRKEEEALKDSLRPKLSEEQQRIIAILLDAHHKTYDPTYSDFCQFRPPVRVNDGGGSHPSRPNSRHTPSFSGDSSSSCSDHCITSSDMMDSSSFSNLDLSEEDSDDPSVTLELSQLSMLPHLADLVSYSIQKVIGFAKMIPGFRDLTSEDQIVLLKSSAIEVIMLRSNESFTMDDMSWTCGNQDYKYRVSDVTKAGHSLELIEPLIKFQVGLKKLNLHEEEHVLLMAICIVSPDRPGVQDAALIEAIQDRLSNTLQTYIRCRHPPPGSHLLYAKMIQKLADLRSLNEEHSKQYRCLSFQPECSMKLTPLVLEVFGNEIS
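Fluorescence polarization assay measuring small-molecule disruption of VDR binding to the coregulator peptide SRC2-3. Compounds were pin-transferred (23 nl) into the reagent mix and incubated 2 h at room temperature before reading.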
An asterisk follows results filed as active; ? = inconclusive; & = joins results of further samples; [ ] = another dose, or the depositor's remark. On the % scale 0 is the no-effect control and ±100 the full control effect; potency means the concentration at half of the fitted maximal effect.

SMILES	VDR inhibitor
O=C1c2ccccc2S(=O)(=O)N1Cc1cccc(S(=O)(=O)N2CCOCC2)c1	10%
Cc1cccc(C(=O)NC2(C(F)(F)F)N=C(c3ccccc3)N(Cc3ccccc3)C2=O)c1 (centres undefined)	5%
CCc1ccccc1NC(=O)Cc1ccc(-n2c(C)nc3cccnc32)cc1	1%
COCCCNc1nc2nonc2nc1NCCSC	6%
COc1ccccc1C(=O)Nc1ccc2c(c1)nc1n2CCSC1	-20%
Cc1ccc(NC(=O)NC2CCCCC2)c(C)c1	-18%
COc1ccc(Cl)cc1NC(=O)CCNC(=O)Cn1ccc2ccccc2c1=O	-19%
CCOc1ccccc1-c1nc(CN(Cc2cnn(C)c2)C(C)C)c(C)o1	-1%
COc1ccc(S(=O)(=O)N2CCN(CC(=O)c3ccc(O)c(O)c3)CC2)cc1	2%
Cc1cc(C)cc(C(=O)n2nc(C)c(S(=O)(=O)N3CCOCC3)c2C)c1	-1%
Cc1cc(NC(=O)CSc2nnc(C)n2-c2ccccc2C)no1	-5%
CCc1ccc(C(=O)NNC(=O)[C@H](C)NC(=O)c2ccco2)cc1	3%
O=S1(=O)CSCS(=O)(=O)C1	-5%
CC(=O)c1c(C)[nH]c(C(=O)COC(=O)c2ccc3c(=O)n4c(nc3c2)CCC4)c1C	7%
Cc1ccc(NS(=O)(=O)c2cccc3nsnc23)cc1	3%
CC1(C)C(=O)Nc2ccccc2N1C(=O)COC(=O)c1cccnc1Cl	10%
CC(=O)c1ccc(NC(=O)c2ccc(C)c(Br)c2)cc1	6%
CN(CC(=O)Nc1c(F)cccc1F)Cc1cccs1	-5%
CCc1nc2cccnc2n1-c1ccc(C(=O)O)cc1	3%
Cc1ccc(S(=O)(=O)N(Cc2n[nH]c(=S)n2-c2ccccc2)c2ccccc2)cc1	0%
Cc1nc(SCC(=O)Nc2cccc(C(=O)O)c2)n[nH]1	-5%
Cc1cc(C)nc(N/N=C/c2ccccc2)n1	0%
COc1ccc(Cn2c(=O)[nH]c3cc(C(=O)NC4CCN(Cc5ccccc5)CC4)ccc32)cc1	15%
CCOc1ccc(C(=O)NCC(c2ccc3c(c2)OCO3)N2CCN(c3ccccc3F)CC2)cc1 (centres undefined)	3%
CC1CCc2nn(CC(=O)NCCCN3CCCC3=O)cc2C1 (centres undefined)	-13%
O=C(C1=C[C@H](c2csc3ccccc23)C[C@H](OCc2ccc(CO)cc2)O1)N1CCOCC1	3%
Cc1c(Br)cc(C(=O)O)c(C)c1C	2%
CCN1CCN(c2ccc(NC(=O)c3ccc4c(c3)OCCO4)cc2C)CC1	7%
CCn1c(SCC(=O)c2cccs2)nnc1-c1cccs1	-18%
COc1cc(NC(=O)c2ccc3oc(=O)c(S(=O)(=O)c4ccccc4)cc3c2)cc(OC)c1	4%
Cc1cn(C(=O)CN2C(=O)c3ccccc3C2=O)c(C)n1	13%
Clc1ncccc1OCc1ccccc1	-28%
COC(=O)c1cc(-c2cccc([N+](=O)[O-])c2)c2c(=O)[nH]c(=O)n(C)c2n1	-8%
CCSc1nnc(NC(=O)C(Cc2ccccc2)n2cccc2)s1 (centres undefined)	0%
COc1cccc2cc(C(=O)C3=C(O)C(=O)N(CCN4CCOCC4)C3c3ccc(Cl)cc3)oc12 (centres undefined)	-16%
COC(=O)C(C)Oc1ccc2cc(-c3ccccc3)c(=O)oc2c1 (centres undefined)	3%
N#Cc1c2n(c(=S)n(-c3ccccn3)c1=O)CCCCC2	12%
COCCCn1c(SCC(=O)Nc2ccccc2OC)nc2c(sc3ccccc32)c1=O	11%
COc1ccccc1OCCC(=O)OCC(=O)Nc1cc(S(=O)(=O)N2CCOCC2)ccc1Cl	10%
Cn1c(=O)[nH]c2c(c1=O)CCO2	1%
CC(C)CNC(=O)C(=O)Nc1c2c(nn1-c1ccccc1)CS(=O)(=O)C2	-3%
C(=N\n1cnnc1)/c1ccc(OCc2cccc3ccccc23)cc1	-8%
Cc1cc(-c2cccs2)c2c(n1)sc1c(=O)[nH]c(=O)[nH]c12	2%
O=C1/C(=C\c2cccc(O)c2O)SC(=S)N1Cc1ccccc1	-29%
COc1ccccc1N/C(=N/S(=O)(=O)c1ccc(C)cc1)c1ccccc1	-1%
COc1cc(OC)cc(C(C(=O)NCc2ccccc2)N(Cc2ccco2)C(=O)c2ccno2)c1 (centres undefined)	-6%
N#CCC1c2ccccc2CCN1C(=O)Nc1ccc(Cl)cc1 (centres undefined)	-4%
COc1cc(NC(=O)C(C)N2CCN(C(=O)C3CC3)CC2)cc(OC)c1 (centres undefined)	0%
O=C(COC(=O)c1cnccn1)NC1CCCc2ccccc21 (centres undefined)	30%[activator]
Cc1ccc2[nH]c3c(N4CCc5ccccc5C4)ncnc3c2c1	-3%

New compounds follow
SMILES	VDR inhibitor
COc1ccc(CNC(=O)Nc2ccc(C)cc2)cc1	21%
COc1cccc(NC(=S)NC(C)c2ccc(OC)c(OC)c2)c1 (centres undefined)	-12%
O=C(NCc1ccccc1Cl)C(=O)NCC(c1cccs1)S(=O)(=O)c1cccs1 (centres undefined)	10%
Clc1ccc(/C=N/N2CCN(Cc3ccccc3)CC2)cc1	-10%
CCCCCCCCC(=O)N/N=C(\C)c1ccco1	-2%
COc1ccc(CN(C)CC(=O)Nc2ccccc2-c2ccccc2)c(OC)c1	-12%
S=C(NCC1CCCO1)Nc1ccc(Cl)cc1 (centres undefined)	2%
COc1ccc(C(=O)c2c(C)c(CCC#N)n3ccccc23)c(OC)c1	-17%
C=C(C(C)=O)C(O)/C=C/c1ccco1 (centres undefined)	6%
Cc1ccc(CN(C)C(=O)c2cccc(S(=O)(=O)N3CCCC3)c2)cc1	10%
CCCCCCCCCCCCCCCC[N+](C)(C)CCl	-6%
O=C(Nc1ccc(F)cc1F)c1cccn1-c1ncc(C(F)(F)F)cc1Cl	8%
O=C1c2ccccc2NC(c2ccc(-c3cccc([N+](=O)[O-])c3)o2)N1O (centres undefined)	0%
CC1(C)OC2OC(C3COC(=O)O3)C(OC(=O)c3ccccc3)C2O1 (centres undefined)	-8%
CSCC[C@H](NC(=O)C1CCN(S(=O)(=O)c2ccc(C)cc2)CC1)C(=O)NC1CCS(=O)(=O)C1 (some centres undefined)	-8%
CC1C(C)N(C(=O)CCl)c2ccccc2N1C(=O)CCl (centres undefined)	-20%
Cc1ccc(Cl)cc1NC(=O)CCCN1C(=O)c2cccnc2C1=O	-3%
CCOCCCn1c(=N)c(C(=O)NCCN2CCOCC2)cc2c(=O)n3cccc(C)c3nc21	20%
COc1ccccc1CNC(=O)C1=C(C)C(=O)OC12CCC(C)CC2 (centres undefined)	-5%
CC(=O)Nc1sc(N/N=C/c2ccc(N(C)C)cc2)nc1-c1ccc(C)cc1	-13%

Exported field by field: part of the list above
smiles: CCCCCCCCCCCCCCCC[N+](C)(C)CCl
  VDR inhibitor: -6%
smiles: O=C(Nc1ccc(F)cc1F)c1cccn1-c1ncc(C(F)(F)F)cc1Cl
  VDR inhibitor: 8%
smiles: O=C1c2ccccc2NC(c2ccc(-c3cccc([N+](=O)[O-])c3)o2)N1O (centres undefined)
  VDR inhibitor: 0%

Next section.
SMILES	VDR inhibitor
COc1ccc2[nH]c3c(c2c1)CCN1C(=O)C(CC(=O)NCCN2CCOCC2)C[C@H](C(=O)N2CCCCC2)[C@@]31CCc1ccccc1 (some centres undefined)	?
O=C(CN1C(=O)C2C3C=CC(C3)C2C1=O)NCc1ccco1 (centres undefined)	4%
Cc1cccn2c(=O)c(/C=C(\C#N)C(=O)NCc3ccccc3)c(N3CCC(C(N)=O)CC3)nc12	2%
CCOC(=O)C1CCN(C(c2cccc(F)c2)c2c(O)cc(C)n(Cc3ccco3)c2=O)CC1 (centres undefined)	20%
O=C(CSc1ccccc1)N1CCN(c2ccccn2)CC1	-11%
O=C(Nc1nnc(SCc2ccc(F)cc2)s1)c1cccnc1Cl	3%
Cc1cc(C)n2cc(CSc3nnnn3-c3ccccc3)nc2n1	4%
Cc1nc2ccc(NC(=S)NC3CC3)cc2nc1C	-3%
O=C(CNC(=S)N(Cc1ccc(F)cc1)C1CCCCC1)NCC1CCCO1 (centres undefined)	26%
N#Cc1ccc(/C=N/NC(=O)c2ccccc2F)cc1	-5%
C=C(C)C(=O)c1ccc2c(c1)OCO2	-1%
CNc1nc(-c2ccccc2C)nc2ccccc12	45µM*
CCOc1ccccc1N1CCN(CC(=O)Nc2nc(C)c(C(=O)N(C)C)s2)CC1	5%
O=C(CN1CCN(c2ccccc2)CC1)N1CCc2[nH]c3ccccc3c2C1	-10%
CCOC(=O)c1ccccc1NC(=O)Cn1ccn2nc(-c3ccc(OCC)cc3)cc2c1=O	10%
COc1cc(/C=N\Nc2nncn2N)ccc1OC(C)=O	1%
O=C(Nc1ccc(Cl)c(C(F)(F)F)c1)NC1CC2CCCC(C1)N2C1CC1 (centres undefined)	10%
O=C1CSc2ccc(S(=O)(=O)NCc3ccccc3Cl)cc2N1	7%
CCN(CC)C(=O)CSc1nnc(-c2cnccn2)n1-c1ccccc1	-6%
CC(C)C(=O)Nc1cccc(NC(=O)c2ccc([N+](=O)[O-])cc2Cl)c1	-1%

6 entries from above, with the structure last.
| VDR inhibitor | Compound |
| --- | --- |
| 5% | CCOc1ccccc1N1CCN(CC(=O)Nc2nc(C)c(C(=O)N(C)C)s2)CC1 |
| -10% | O=C(CN1CCN(c2ccccc2)CC1)N1CCc2[nH]c3ccccc3c2C1 |
| 10% | CCOC(=O)c1ccccc1NC(=O)Cn1ccn2nc(-c3ccc(OCC)cc3)cc2c1=O |
| 1% | COc1cc(/C=N\Nc2nncn2N)ccc1OC(C)=O |
| 10% | O=C(Nc1ccc(Cl)c(C(F)(F)F)c1)NC1CC2CCCC(C1)N2C1CC1 (centres undefined) |
| 7% | O=C1CSc2ccc(S(=O)(=O)NCc3ccccc3Cl)cc2N1 |

(cont.)
SMILES	VDR inhibitor
CCCc1cc(-c2nc(N)ncc2-c2csc(C)n2)c(O)cc1OC	-1%
CN(c1cccc(NC(=O)Nc2ccc(Cl)cc2)c1)S(C)(=O)=O	0%
CC1=CCC2C(=O)N(c3ccc(N4CCOCC4)cc3)C(=O)C2C1 (centres undefined)	-10%
Cc1ccc(/C(O)=C2\C(=O)C(=O)N(C)C2c2ccccc2[N+](=O)[O-])cc1 (centres undefined)	-26%
Cc1cc(OCCCC(=O)NCCc2ccccn2)ccc1Cl	-6%
COc1ccc(C2(c3ccc(OC)cc3)NC(=O)N(CC(=O)Nc3ccc(OC(F)F)cc3)C2=O)cc1	-10%
CCc1nc(-c2ccccc2O)n(-c2ccccc2)n1	-10%
Cc1ccc(S(=O)(=O)CCC(=O)OCC(=O)Nc2cc(S(=O)(=O)N3CCOCC3)ccc2C)cc1	0%
O=C(Nc1ccccc1F)Nc1ccccc1OC(F)F	1%
Cc1ccccc1NS(=O)(=O)c1ccc2c(c1)NC(=O)CCS2	7%&5%
CCOc1cc(CNc2cccc3ccccc23)cc(Br)c1OCC(=O)NC(C)(C)C	0%
O=C(CS(=O)(=O)c1cn(Cc2ccc(Cl)cc2)c2ccccc12)N1CCCC1	-19%
CCOC(=O)CNS(=O)(=O)c1ccc(S(=O)(=O)N2CCCC2)cc1	0%
COc1ccc(-c2csc(=Nc3ccccc3)n2CCO)cc1	-15%
CCN1C(=O)C(CC(=O)Nc2ccc(OC)cc2)N(Cc2ccc3c(c2)OCO3)C1=S (centres undefined)	1%
Cc1ccccc1Nc1nnc(SCC(=O)NCc2ccco2)s1	-12%
Cc1nn(Cc2ccc(F)cc2)c(C)c1NC(=O)c1cnn2c1NC(c1cccs1)CC2C(F)(F)F (centres undefined)	-3%
CC1(C)Cc2ccccc2-c2nc3n(c(=O)c21)CCCS3	3%
COc1cccc(CNC(=O)c2nnn(CC(=O)Nc3cc(Cl)ccc3C)c2N)c1	-13%&5%
COc1ccc(-n2c(=O)c(-c3cc(F)cc(F)c3)nc3cnc(N4CCNCC4)nc32)cc1	-3%
Nc1cccc(CN2CCCC2)c1	5%
CCOc1ccc(NC(=O)CC2C(=O)N(c3ccccc3)C(=O)N2CCOC)cc1 (centres undefined)	6%
COc1ccc(C(=O)OCC(=O)Nc2ccc3c(c2)OCO3)cc1S(=O)(=O)N1CCOCC1	-9%
CCOc1ccc(N(CC(=O)Nc2cccc(Cl)c2)S(=O)(=O)c2c(C)noc2C)cc1	5%
COc1ccccc1-n1c(SCC(=O)NC2CCS(=O)(=O)C2)nc2ccccc2c1=O (centres undefined)	-2%
Cc1ccc(S(=O)(=O)Nc2c(NC3CCCCC3)c3ccccc3oc2=O)cc1C	-5%
Cc1ccc(NC(=O)CN2C(=O)c3ccccc3S2(=O)=O)c(C)c1	12%
COc1cc(OC)c2c(c1)OC(=O)CC2c1ccc2c(c1)OCO2 (centres undefined)	?
COCCCn1c(SCC(=O)NC(C)(C)C)nnc1-c1cccs1	12%
CC(C)(C)NC(=O)COC(=O)c1ccccc1OCC(=O)Nc1ccc(Br)cc1	2%
CC(=O)c1ccc(S(=O)(=O)N2CCC3(CC2)CC(=O)c2ccccc2O3)cc1	9%
COc1ccc(NC(=S)N2c3ccccc3CC2C)cc1OC (centres undefined)	-15%
C/C(=N\NC(=O)c1nn(C)c(C)c1Br)c1cccc(NC(=O)c2ccoc2C)c1	-15%
COc1cc(/C=C2\C(=N)N3N=C(N4CCOCC4)SC3=NC2=O)ccc1OC(=O)c1ccccc1	?

From PubChem

An excerpt; the hit share may differ from the screen's.
